Assay outcomes deposited in PubChem BioAssay by Johns Hopkins Ion Channel Center.
KCNQ2 pot: potentiators of rat KCNQ2 potassium channel; Potassium voltage-gated channel subfamily KQT member 2 (Rattus norvegicus), O88943; CHO-K1 KCNQ2, FluxOR thallium flux fluorescence; active compounds read high; B-score at 10 µM; 0.54% of 310,000 active;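 active = fluorescence ratio B-score at least 3 SD of library B-scores, with initial fluorescence B-score within 3 SD, cut at about 5.3 in these data; same plate scores as AID 2156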;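 also: B-score of peak minus minimum over baseline fluorescence ratio after K+ and Tl+ stimulus; positive B-score means potentiation of KCNQ2 with more thallium influx and brighter signal; only the inactives scoring about 0 or higher are listed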
Target sequence (O88943 whole entry, looked up): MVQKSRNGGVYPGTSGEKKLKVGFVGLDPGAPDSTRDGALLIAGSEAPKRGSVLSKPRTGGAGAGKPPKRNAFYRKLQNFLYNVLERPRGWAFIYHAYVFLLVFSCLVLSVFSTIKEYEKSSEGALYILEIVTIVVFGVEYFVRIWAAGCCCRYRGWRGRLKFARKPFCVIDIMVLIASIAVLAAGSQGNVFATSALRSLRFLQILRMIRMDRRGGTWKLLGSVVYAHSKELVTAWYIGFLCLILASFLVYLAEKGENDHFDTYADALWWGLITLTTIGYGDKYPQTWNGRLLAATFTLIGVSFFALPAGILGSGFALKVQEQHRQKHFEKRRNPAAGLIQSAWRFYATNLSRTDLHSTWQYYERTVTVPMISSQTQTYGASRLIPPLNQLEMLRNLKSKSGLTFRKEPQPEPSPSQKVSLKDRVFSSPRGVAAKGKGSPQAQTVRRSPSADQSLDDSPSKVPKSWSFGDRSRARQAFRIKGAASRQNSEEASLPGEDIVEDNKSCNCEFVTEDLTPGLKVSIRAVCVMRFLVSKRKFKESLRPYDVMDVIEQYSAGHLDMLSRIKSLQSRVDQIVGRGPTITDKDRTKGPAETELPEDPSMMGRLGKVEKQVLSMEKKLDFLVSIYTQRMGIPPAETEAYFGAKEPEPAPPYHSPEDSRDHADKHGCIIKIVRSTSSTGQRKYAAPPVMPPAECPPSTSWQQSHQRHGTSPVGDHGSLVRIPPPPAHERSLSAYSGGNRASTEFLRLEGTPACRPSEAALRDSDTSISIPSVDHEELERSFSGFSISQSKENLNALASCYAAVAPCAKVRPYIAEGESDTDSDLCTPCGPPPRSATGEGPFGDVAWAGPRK
KCNQ2 pot baseline: recorded beside KCNQ2 pot, whose call it bears; B-score; compound at 10 µM; measured here: initial fluorescence intensity artifact check;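 brightness before thallium and not channel activity; 0 = typical well and far values either way flag optical interference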
* marks the source's active call; other numbers are inactive results. An excerpt, so the mix of outcomes need not match the whole.

KCNQ2 pot,KCNQ2 pot baseline,Compound
0.86,0.01,COC(=O)c1ccc(-c2nc(O)c3cnccn23)cc1
4,0.08,O=[N+]([O-])c1ccc(O)c(/C=N/Nc2ccc(Cl)nn2)c1
2.2,-1.2,CC(=O)NC(CCS(C)(=O)=O)C(=O)Nc1ccc(Cl)c(Cl)c1 (centres undefined)
0.29,0.08,CC(C)Oc1ccc(C(=O)Nc2ccc(N3CCCCC3)cc2)cc1
1.1,-0.88,O=C(COC(=O)/C=C/c1ccc(Cl)cc1)Nc1ccccc1
0.62,-0.87,Cc1ccc(/C=N/n2nnnc2N)cc1[N+](=O)[O-]
0.07,-1.6,O=C(CN(Cc1ccc(F)cc1)C(=O)CCC(=O)Nc1ccccn1)NCc1ccco1
0.24,1.7,Cc1ccc(S(=O)(=O)c2c(C)cc(-c3ccccc3)[nH]c2=O)cc1
0.23,-0.03,Cc1ccccc1-c1nnc(SCC(=O)Nc2c(C)n(C)n(-c3ccccc3)c2=O)o1
2.6,-0.36,CC(C)COc1ccc(C(=O)N/N=C/c2ccoc2)cc1

A stretch taken from the entries so far, as a working copy:
KCNQ2 pot,KCNQ2 pot baseline,Compound
0.24,1.7,Cc1ccc(S(=O)(=O)c2c(C)cc(-c3ccccc3)[nH]c2=O)cc1
0.23,-0.03,Cc1ccccc1-c1nnc(SCC(=O)Nc2c(C)n(C)n(-c3ccccc3)c2=O)o1
2.6,-0.36,CC(C)COc1ccc(C(=O)N/N=C/c2ccoc2)cc1

Next section
KCNQ2 pot,KCNQ2 pot baseline,Compound
0.06,1.9,O=C(CCN1C(=O)C2(OCCO2)c2ccccc21)c1ccccc1
0.71,-1.5,Cc1cc(=O)n(C)c(=O)n1CCCCCCN1CCCC1
0.75,-0.42,O=[N+]([O-])c1cc(Cl)ccc1N1CCCCC1
0.93,0.46,Cc1ccc(C(=O)NNC(=O)C2CCN(Cc3ccccc3)CC2)cc1
1.5,0.08,CSc1ccccc1NC(=O)Cn1nnc(-c2ccc(S(C)(=O)=O)cc2)n1
0.21,0.98,COc1ccc(-n2c(SC3CCOC3=O)nc3ccccc3c2=O)cc1OC (centres undefined)
0.76,0.04,COC(=O)C1=C(N)Oc2c(oc(CO)cc2=O)C1c1ccccc1F (centres undefined)
0.25,-0.55,CCN(CC(=O)NCc1cccs1)S(=O)(=O)c1ccc(F)c(F)c1F
1.2,-0.84,c1cc2c(c(NCc3ccncc3)c1)CCCC2
1.1,0.27,COc1ccc(S(=O)(=O)NCc2ccccn2)cc1NC(=O)c1ccc(Cl)cc1

Further structures follow:
KCNQ2 pot,KCNQ2 pot baseline,Compound
0.5,-0.35,C=CCOC(=O)C1=C(C)NC(C)=C(C(=O)OCC=C)C1c1ccco1
0.52,-0.92,Cc1nn(C)c(C)c1NC(=O)c1ccccc1NC(=O)Nc1ccccc1
0.43,-0.04,CC(=O)Nc1ccc(C(=O)OC2CCCCC2=O)cc1 (centres undefined)
2.5,-0.88,CN(C)S(=O)(=O)N1CCC(Oc2cccc(C(=O)NC3CCCCCC3)c2)CC1
0.8,1.5,C=C(C)[C@@H]1CC=C(CN2CCN(Cc3ccccc3)CC2)CC1
0.48,-0.1,Cc1cc(C)c(OCC(=O)N/N=C/c2ccco2)c(C)c1
0.4,2.3,COc1ccc(CNC(=O)C2CCN(S(=O)(=O)c3ccc4c(c3)N(C(C)=O)CCO4)CC2)cc1
0.62,-2.3,Cc1c(CCC(=O)O)c(=O)oc2cc(OCc3ccc(Br)cc3)ccc12
1.1,-0.08,COc1ccc(CC(=O)N2CCc3cc(OC)c(OC)cc3C2C)c(OC)c1 (centres undefined)
2,-0.42,CCOC(=O)C1=NOC2C(=O)N(c3ccc(Cl)cc3Cl)C(=O)C12 (centres undefined)

Next part
KCNQ2 pot,KCNQ2 pot baseline,Compound
0.79,0.62,Cn1c(=O)c2c(nc(NCC3CCCO3)n2C)n(C)c1=O (centres undefined)
1.1,0.62,O=C(CCC(=O)N(c1cccc(F)c1)C(C(=O)NC1CCCC1)c1ccncc1)Nc1cccnc1 (centres undefined)
1.2,-0.37,CCOC(=O)c1c(N)c(C#N)nn1-c1ccccc1C(=O)OC
0.01,0.7,Cc1[nH]c(=O)[nH]c(=O)c1S(=O)(=O)Nc1ccc(F)cc1Cl
0.45,-0.72,CCOc1ccc2oc(C(=O)N3CC(C)OC(C)C3)c(C)c2c1 (centres undefined)
2.8,0.13,O=C(Nc1ccncc1)c1cc(S(=O)(=O)N2CCOCC2)ccc1Cl
0.87,-0.67,N#CCCN(CCC#N)C(=O)c1ccc2c(c1)OCO2
0.16,0.03,CC(C)(CS(=O)(=O)[O-])NC(=O)CC[N+](C)(C)CCO
0.81,-0.09,O=C(Cc1cccc(C(F)(F)F)c1)NCc1ccc(Cl)cc1Cl
0.04,0.6,COc1ccc(C(C)=O)cc1CSc1nnc(Nc2ccccc2)s1

Next section
KCNQ2 pot,KCNQ2 pot baseline,Compound
1.7,-0.92,COc1ccc(/C=N/NC(=O)c2cccnc2)cc1COc1ccc([N+](=O)[O-])cc1
1.1,-2.4,O=C1CCN(CCc2ccccc2)CCN1CCOc1ccccc1
2,-0.37,CC(C(=O)Nc1ccc(C(=O)O)c(O)c1)N1C(=O)/C(=C\c2ccco2)SC1=S (centres undefined)
1.3,-1.2,COc1cc(OC)cc(-c2n[nH]c(=S)n2-c2cc(OC)ccc2OC)c1
0.81,-1.1,NC(=O)N=Nc1c(O)[nH]c2ccc([N+](=O)[O-])cc12
2.7,-0.3,S=C(CN1CCCC1=S)NCCc1ccccc1
0.41,0.98,Cc1cc(C)cc(NC(=O)c2ccc(CSc3nnc(C)s3)cc2)c1
0.75,0.1,COc1ccc(C(=O)Nc2ccccc2C(=O)NC(Cc2ccc(O)cc2)C(=O)NNC(=O)c2ccncc2)cc1 (centres undefined)
0.3,-3.4,O=c1[nH]c(=S)[nH]cc1S(=O)(=O)c1cccc(Cl)c1
0.34,0.01,COc1cccc(-c2nnc(N(C)C(=O)c3ccno3)s2)c1

More structures:
KCNQ2 pot,KCNQ2 pot baseline,Compound
1.6,0,Cn1c(CNC(=O)c2ccccc2F)nnc1SCC(=O)N1CCN(c2ccccc2)CC1
1.9,1.8,CC1CCCCN1C(=O)CSc1nc(-c2ccccc2)cn1N (centres undefined)
0.15,1.1,O=CN1CCN(C(C(=O)NC2CCCC2)c2ccc(Cl)cc2)CC1 (centres undefined)
0.96,0.33,COc1ccc(Cl)cc1NC(=O)C[n+]1ccccc1
1.8,-0.69,COc1ccc(C(=O)N/N=C(\C)c2cccc(NC(=O)c3ccc(F)cc3)c2)c(OC)c1
1.3,-1.2,CCC(Sc1nc2n[nH]c(C)c2c(=N)n1-c1cccc(Cl)c1C)C(=O)N(CC)CC (centres undefined)
0.1,0.66,S=c1nc[nH]c2c1ncn2C1CCCC1
1.5,-0.06,CCC(CO)NCc1ccc(OCC(=O)Nc2cccc(C(F)(F)F)c2)c(OC)c1 (centres undefined)
0.5,-0.98,Cc1ccc(C)c(-c2nnc(NC(=O)Cc3ccccc3)o2)c1
0.83,-0.42,O=C(CCSc1nccn1Cc1ccccc1)N1CCOCC1

Next part
KCNQ2 pot,KCNQ2 pot baseline,Compound
0.25,1.6,CN(Cc1nc2ccc(Cl)cc2[nH]1)Cc1nc(-c2cnccn2)no1
0.06,-2,COc1ccc(NC(=O)CN(C)C(=O)c2n[nH]c3ccccc23)cc1
1.3,-0.05,O=c1cc(CN2CCOCC2)c2ccc(O)c(O)c2o1
1.7,0,CC(CCc1ccccc1)NC(=O)COC(=O)c1ccc(F)cc1 (centres undefined)
0.01,0.39,CNC(=S)N/N=C/c1ccc(-c2cccc(C(=O)O)c2)o1
0.09,-1,O=C(NCC(c1cccs1)N1CCOCC1)c1cccnc1 (centres undefined)
1.4,-0.71,Cc1ccc(-n2nnnc2SCC(=O)Nc2ccccc2-c2ccccc2)cc1C
0.24,-0.24,c1cn2c(Nc3ccc4c(c3)OCCO4)c(-c3ccc(N4CCOCC4)cc3)nc2cn1
2.3,-1.4,O=C(Nc1ccc(F)cc1)NC1CCN(Cc2c(F)cccc2Cl)CC1
0.17,0.18,COc1cccc(/C=N/NC(=O)CCc2ccccc2)c1

The results go on:
KCNQ2 pot,KCNQ2 pot baseline,Compound
1.3,-0.83,Cc1cc(NC(=O)C2C3C(=O)N(c4cccnc4)C(C(=O)NC(C)(C)C)C34C=CC2(C)O4)no1 (centres undefined)
0.87,0.04,CN1C(=O)c2cccc(NCCCN3C(=O)c4ccccc4C3=O)c2C1=O
0.61,1.5,O=C(O)c1ccccc1Sc1ncnc2sc3c(c12)CCC3
1.4,-2.6,CCN(CC)CCN(Cc1cc2cc3c(cc2[nH]c1=O)OCCO3)C(=S)NCCCOC
1.1,2.4,CC(C)n1c(=O)[nH]c2cc(C(=O)Nc3ccccc3)ccc21
1.7,-1.6,Cc1ccccc1Nc1nc(N)nc(COC(=O)c2ccc(S(=O)(=O)N(C)C)cc2)n1
0.1,-0.96,COC(=O)c1cc2c(s1)CS(=O)C2 (centres undefined)
0.08,0.23,CCOC(=O)Cn1nc(C)c(NC(=O)c2ccc([N+](=O)[O-])c(C)c2)c1C
1.5,-0.37,COc1ccc(CCNC(=O)C2CCCN(C(=O)N(C)C)C2)c(OC)c1 (centres undefined)
0.88,0.67,COc1cc(Oc2nc(C(F)(F)F)nc3ccccc23)ccc1C=O

New compounds follow.
KCNQ2 pot,KCNQ2 pot baseline,Compound
1.2,0.47,CCN(CC)C(=O)CSc1nnc(-n2nc(C)cc2C)c2ccccc12
1.2,0.81,COc1ccc(NC(=O)CCS(=O)(=O)c2ccc3c(c2)CCCN3C(C)=O)cc1Cl
0.52,-1.2,Cc1cc(S(=O)(=O)Nc2nc(CN3CCOCC3)nc3sc4c(c23)CCCC4)ccc1F
0.11,1.4,CC(=O)NCc1cc(-c2nn(C)c(=O)c3ccccc23)ccc1C
0.08,0.67,O=C(O)CCC(=O)Nc1ccc(Cc2ccc(NC(=O)CCC(=O)O)c(O)c2)cc1O
1.7,-0.19,CC(=O)NC(CC(=O)Nc1nc(-c2ccccc2)c(C(C)=O)s1)c1ccccc1 (centres undefined)
0.24,0.47,CCOc1ccccc1NC(=O)CN1CCC(NC(=O)Nc2ccccc2)CC1
0.2,0.01,Cc1nnc2n(-c3ccccc3)c(=O)c3c4c(sc3n12)COC(C(C)C)C4 (centres undefined)
0.73,-3.2,COc1coc(C(O)CN)cc1=O (centres undefined)
0.56,0.61,CC1CCCN(c2cc(N(C)CCO)c([N+](=O)[O-])c3nonc23)C1 (centres undefined)

(more compounds)
KCNQ2 pot,KCNQ2 pot baseline,Compound
0.33,0.44,C/C(=N\Nc1nc(C)cc(-c2ccccc2)n1)c1ccc(F)cc1
0.52,1.1,CCc1cccc2c(C(=O)Cn3nnc(-c4ccc(OC)c(OC)c4)n3)c[nH]c12
0.77,-1.2,Cn1c(=O)c2c(ncn2Cc2cc(-c3ccccc3)no2)n(C)c1=O
0.67,-0.83,CCOC(=O)C(C)N1CC(=O)N(c2ccccc2)C1=O (centres undefined)
0.04,0.4,Cc1cccc(CCNC(=O)c2cccc(N3CCCC3=O)c2)c1
2.8,-1.9,CCOC(=O)Cc1csc(NC(=S)NC(=O)c2ccc(F)cc2)n1
0.55,-0.5,C/C(=N/Nc1ccccc1[N+](=O)[O-])c1ccc(C)c([N+](=O)[O-])c1
0.78,-1.2,CCS(=O)(=O)NC(C)C(c1cccs1)N1CCN(c2ccc(OC)cc2)CC1 (centres undefined)
0.95,-0.19,CCN(CC)CCN(C(=O)Cn1nnc(-c2ccc(OC)c(OC)c2)n1)C(C(=O)NC1CCCC1)c1ccc(F)cc1 (centres undefined)
0.35,0.64,O=C(NCCN1CCN(c2ccccc2)CC1)c1ccc(NC(=O)C2CCCO2)cc1 (centres undefined)

(more compounds)
KCNQ2 pot,KCNQ2 pot baseline,Compound
0.79,-1.4,O=C(CCl)NCCCN(C(=O)C(Cl)Cl)c1ccc([N+](=O)[O-])cc1
0.86,1.7,CC(C)C(=O)NCCCc1ccccc1
0.93,-1.4,O=C(NCc1ccccn1)C1(C(F)(F)F)C/C(=C\CCO)CCCO1 (centres undefined)
1,-0.37,Cc1ccc(-c2nn3c(C)nnc3s2)cc1NC(=O)C(C)C
0.15,-0.71,NC(=S)NNc1cccc(Cl)c1
1,1.2,COc1ccc(N(CC(=O)Nc2cc(C(=O)O)ccc2C)S(=O)(=O)c2c(C)noc2C)cc1
0.88,1.8,CC(C)N(Cc1cc2ccccc2[nH]c1=O)C(=O)c1cccnc1
1.3,1.4,NC1=NC(=O)C(Cc2ccc(OC(F)(F)F)cc2)S1 (centres undefined)
0.13,1.3,Cc1cc(C)nc(N2CCC(C(=O)O)CC2)n1
0.66,0.03,CCOC(=O)N1CCC(NC(=S)Nc2ccc3nc(N4CCN(C)CC4)cc(C)c3c2)CC1

Ordered by molecular weight (lowest first): part of the list above.
KCNQ2 pot,KCNQ2 pot baseline,Compound
0.15,-0.71,NC(=S)NNc1cccc(Cl)c1
1,-0.37,Cc1ccc(-c2nn3c(C)nnc3s2)cc1NC(=O)C(C)C
0.93,-1.4,O=C(NCc1ccccn1)C1(C(F)(F)F)C/C(=C\CCO)CCCO1 (centres undefined)
0.79,-1.4,O=C(CCl)NCCCN(C(=O)C(Cl)Cl)c1ccc([N+](=O)[O-])cc1
0.66,0.03,CCOC(=O)N1CCC(NC(=S)Nc2ccc3nc(N4CCN(C)CC4)cc(C)c3c2)CC1

(continued)
KCNQ2 pot,KCNQ2 pot baseline,Compound
1.7,-2.5,CCC/C(=C1/C(=O)CC(C)(C)C(C(=O)OC)C1=O)N1CCCC1 (centres undefined)
1.1,-0.08,CCOc1ccc(C(=O)Nc2ccc3[nH]ncc3c2)cc1
0.96,0.13,Cc1cc(C)c(S(=O)(=O)NCc2ccncc2)c(C)c1
3.1,-1.2,CCC1(c2ccccc2)NC(=O)N(CC(=O)N2CCN(S(=O)(=O)c3ccccc3)CC2)C1=O (centres undefined)
0.16,-0.96,CC(=O)Nc1ccc(S(=O)(=O)N(CCCN2CCOCC2)Cc2cccs2)cc1
